Ba CapD inh – inhibitors of Bacillus anthracis CapD enzyme; purified CapD enzyme, fluorescence intensity read-out; active compounds read low; some hits fall short of the stated cut; z-score (no concentration beside the values); 140,000 tested, 0.23% active; AID 492967;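 active = z-score under -4 in either of two replicates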;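 also: stock transfer was 100 nL into about 40 µL; score is relative to mean and spread of the plate; one replicate is shown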
AID504770 – E. coli YBA685 growth inhibition, screen for V. cholerae RctB inhibitors; z-score (no concentration beside the values); E. coli YBA685 rctB-dependent plasmid, OD600 growth, 3 h; active compounds read low; AID 504770; 130,000 tested, 0.27% active;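 active = z-score under -2 on both plates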;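 also: wells of about 30 µL received 100 nL stock; score is relative to mean and SD of the test wells; the first replicate is given; strong numbers were not always called active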
Active calls of the source: *; x = no result given.

SMILES | Ba CapD inh | AID504770
Cc1ccc(CNCc2ccc3c(c2)OCO3)cc1 | -0.095 | 0.05
N#CC(C#N)=Cc1ccc(OC(=O)c2ccccn2)cc1 | x | -0.85
Cc1cc(C(=O)N/N=C2\CCCc3ccccc32)c(C)o1 | x | -0.85
CCCS(=O)(=O)C1=C(N)OC(c2ccccc2)=C(C#N)C1c1ccc(Cl)cc1 (configuration not stated) | -0.055 | 0.75
COc1ccc(NS(=O)(=O)c2ccc(Oc3ncccn3)cc2)cc1 | x | 0
Oc1cc(OCc2cccc(C(F)(F)F)c2)ccc1-c1ccn[nH]1 | -0.3 | -0.35
O=C1CSc2ccc(C(=O)NCCCN3CCCCC3)cc2N1 | 14 | -0.85
O=C(Nc1ccccc1)C(C(=O)Nc1ccccc1)c1ccccc1 | 0.14 | x
Cc1ccc(NNC(=O)c2ccno2)cc1C | -0.09 | 1.6
O=C1NC(=O)/C(=C\c2ccccc2)N1 | -1.9 | -0.45
CCN(CC)C(=O)CN(C#N)c1nc(N(C)C)nc(N(C)C)n1 | 0.07 | x
CC(C)(C)S(=O)(=O)Cc1nc(-c2cccc(F)c2)cs1 | 10 | -0.6
Cc1ccc(NC(=O)CC2C(=O)NC3CCCCC3N2C(=O)c2ccc(F)cc2)cc1C (configuration not stated) | -0.2 | -0.75
Cc1ccc(CSc2ncccc2C(F)(F)F)cc1 | 9.4 | -1.4
N#CC(C#N)=Cc1c(Cl)nc2sccn12 | x | -1.4
CCOC(=O)c1c(C)oc(N)c1C(=O)OCC | x | -0.75
NC(=O)c1ccc(-c2cccc(C(F)(F)F)c2)o1 | x | 0.1
O=C(CSc1ccccc1[N+](=O)[O-])NNC(=S)Nc1cccc(C(F)(F)F)c1 | -0.4 | x
COc1ccc(C2/C(=C(/O)c3ccccc3)C(=O)C(=O)N2c2ccc(O)cc2)cc1 (configuration not stated) | -0.79 | x
CC(C)CC(=O)Nc1nonc1-c1ccccc1 | 0.47 | -0.85
COc1ccc(-c2cnn3c(Cl)c(CCCl)c(C)nc23)cc1OC | -0.79 | 1.8
CCOC(=O)c1c(C)oc2ccc(OC(=O)N3CCOCC3)cc12 | x | -0.1
CCC1CCCCN1CCCNC(=O)c1cc2c(s1)CSC2 (configuration not stated) | -1.5 | 0.1
CCN1C=C(C(=O)OC)C(c2ccc(C(C)C)cc2)C(C(=O)OC)=C1 | 84 | -0.5
CN(Cc1ccccc1)Cn1nc(-c2ccccc2)oc1=S | x | 0.05
N#Cc1ccsc1NC(=O)Cn1cnc2sccc2c1=O | x | -0.55
CN(C)CCNC(=O)Cn1ncc2c(Cl)cccc21 | -0.015 | 0.65
COc1ccc(N2C(=O)/C(=C/c3c(OC)cc(OC)cc3OC)C(=O)NC2=S)cc1 | 0 | x
O=C(O)CCC(=O)c1ccc2c(c1)CCC2 | 0.1 | -0.05
Cc1cc(=O)[nH]c2c1cnn2C1CCCCC1 | -1.9 | -0.1
CN(C(=O)COc1cccc(Br)c1)c1ccccc1 | 0.56 | -0.1
COC(=O)Cc1nc(N2CCN(c3ccccc3OC)CC2)c2c(C)c(C)sc2n1 | -0.73 | x
COc1ccc(C2OC(=O)CC2C(=O)NC(C)C)cc1 (configuration not stated) | -2.3 | -0.1
CC(C)N1C(=O)C2(c3ccccc31)N1CC3(C)CN2CC(C)(C1)C3=O (configuration not stated) | 0.005 | x
CC1=C(C(=O)OCC2CCCO2)C(c2cc3c(cc2Br)OCO3)C2=C(CC(C)(C)CC2=O)N1 (configuration not stated) | 14 | x
COC(=O)c1ccc(/C=N/n2c(-c3ccco3)csc2=NC2CCCCC2)cc1 | x | 0.1
COc1ccccc1-c1c(C)nn2c(N3CCC(C(N)=O)CC3)cc(C)nc12 | -0.82 | -0.6
CCc1ccc(/C=C2\SC(=S)N(CCC(=O)NCCCN3CCOCC3)C2=O)cc1 | -0.065 | -0.05
Cc1ccccc1N=Cc1ccc(N(C)C)cc1 | -2.8 | -0.75
CC(C)Nc1nc(NC(C)C)nc(N(C)C(N)=O)n1 | 0.09 | -0.8
FC(F)(F)c1ccc(-c2[nH]ncc2-c2cnccn2)cn1 | -0.05 | x
O=C(O)C1C2C=CC3(CN(CCCN4CCOCC4)C(=O)C13)O2 (configuration not stated) | -0.045 | -0.5
COc1ccc(C2=N/C(=C\c3ccc(OC(C)=O)c(OC(C)=O)c3)C(=O)O2)cc1OC | 1.9 | x
COc1ccc(N(CC(=O)NCCSc2nc3ccccc3s2)S(=O)(=O)c2ccccc2)c(OC)c1 | -0.16 | x
Cc1ccc(N2CCN(C(=O)OCCn3nc(-c4ccccc4)cc3-c3ccccc3)CC2)cc1 | -0.88 | x
CCOC(=O)c1c(NC(=O)c2sc3nc(N)c(C#N)cc3c2N)sc2c1CCCC2 | -0.065 | x
CCn1c(SCC(=O)NC2CCCC2)nnc1-c1c[nH]c2ccccc12 | -0.28 | -0.7
O=C(c1ccc(CSc2ncccn2)cc1)N1CCOCC1 | 0.54 | 0.25
CSc1cc(-c2nccs2)nn1C(C)=O | 0.24 | -1
c1ccc(CSCc2cn3ccsc3n2)cc1 | -0.12 | 0.95
CC(C)NC(=O)c1cc2sccc2nc1C(F)(F)F | -0.33 | x
COc1ccc(CC(=O)NCCS(=O)(=O)N2CCN(c3ccc(OC)cc3)CC2)cc1 | x | 0.75
CC(C#N)(Nc1ccccc1)c1ccncc1 (configuration not stated) | -0.43 | -0.2
O=C(C1CC(=O)N(C2CCCCC2)C1)N1CCN(c2cccc(C(F)(F)F)c2)CC1 (configuration not stated) | 0.46 | -1
CN1CCN(c2ccc(NC(=O)CC34CC5CC(CC(C5)C3)C4)cc2)CC1 | -0.34 | 2
COc1ccc(CCNC(=O)CSCc2ccc(Cl)cc2)cc1OC | -0.36 | -0.5
Cn1cnc(S(=O)(=O)NCc2c(Cl)cccc2Oc2ccccc2)c1 | -1.1 | -0.55
Cc1c(Cl)c([N+](=O)[O-])nn1CC(=O)Nc1ccc(Cl)cc1C(=O)c1ccccc1 | -0.17 | x
CCCCCOc1ccc(C(=O)CCN2CCOCC2)cc1 | x | 0.05
O=[N+]([O-])c1cccc(C2(O)CN(c3ccc(Br)cc3)C3=[N+]2CCCS3)c1 (configuration not stated) | -0.005 | x
(cont.)
SMILES | Ba CapD inh | AID504770
CCC(=O)OC1(C(=O)CCl)[C@@H](C)C[C@H]2[C@@H]3CCC4=CC(=O)C=C[C@]4(C)[C@@]3(F)[C@@H](O)C[C@@]21C (some centres not stated) | -0.05 | x
Cc1ccc(S(=O)(=O)c2nc(-c3ccccc3)oc2NCc2ccc3c(c2)OCO3)cc1 | 6 | -0.2
CC(OC(=O)CSc1nc2ccccc2o1)c1nnc(-c2ccccc2)o1 (configuration not stated) | x | -0.15
CCOC(=O)c1sc2sc(C(=O)OCC)c3c2c1CN(Cc1ccccc1)C3 | x | 0.75
O=C(CC(=O)c1c(F)cccc1F)c1ccccc1O | -2.5 | 0.05
COC(=O)c1cc(-c2ccccc2)nc2ccccc12 | 15 | -0.3
COc1ccc(-c2cc(-c3ccccc3)nc(SCC(N)=O)c2C#N)cc1 | 2.5 | x
COc1ccc2c(c1)sc(=NC(=O)c1cccc(S(C)(=O)=O)c1)n2C | x | -1.1
CC(C(=O)Nc1ccc2c(c1)OCCO2)N(C)Cc1c(F)cccc1Cl (configuration not stated) | x | 0.85
NC(=O)Cn1c(=O)c2ccc(Cl)cc2n2nncc12 | x | 0.55
CN1C(=O)C(C#N)=C(N)C12CCCC2 | x | -0.8
O=c1oc2ccccc2cc1-c1nnc(-c2cccc3ccccc23)o1 | 14 | 0.5
O=C1c2ccccc2C(=O)N1Cc1cc(=O)n2ccsc2n1 | x | -0.45
COc1cc(OC)nc(CSCCNC(=O)CN2CCN(C(c3ccccc3)c3ccccc3)CC2)n1 | 0.005 | x
O=C(Cn1ncc2c1-c1ccccc1OC2)Nc1nccs1 | 0.14 | -0.25
C/C(=N\NC(=O)COc1ccc(Cl)cc1)c1ccc(O)cc1O | x | -0.1
O=C(c1cccs1)N1CCN(Cc2cccc(Cl)c2)CC1 | 0.27 | -0.85
O=C1CNC(=S)N1CCc1cnc[nH]1 | -0.25 | 0.25
Cc1ccc2[nH]c(=O)c3cc(C(=O)NCCN4CCN(c5ccccc5F)CC4)sc3c2c1 | -0.55 | 1.8
COc1cc(CN2CCN(CCOC(=O)N3CCCN(c4nc5ccc(Cl)cc5s4)CC3)CC2)cc2c1OCO2 | 0.67 | x
O=C(O)/C=C/c1nc2ccccc2s1 | x | 0
Cc1ccc(NC(=S)N(CCC#N)CCc2ccccn2)cc1 | -0.15 | x
Cc1nc2nc[nH]n2c(=O)c1CCC(=O)O | 0.28 | -0.2
CN(C(=O)COC(=O)c1cc2ccccc2cc1O)c1ccccc1 | 4.6 | 0.05
CCN1CCN(Cc2c(C)[nH]c3c(C)cc(C)cc3c2=O)CC1 | x | -0.8
Cc1ccc2nc(NC(=O)c3ccccc3C(=O)O)sc2c1 | -0.58 | 1.9
CC(C)OC(=O)C1=C(N)OC2=C(C(=O)CCC2)C1c1ccccc1F (configuration not stated) | x | -0.65
CCCCN(C)S(=O)(=O)c1ccc(C(=O)Nc2nnc(-c3ccco3)o2)cc1 | x | 0.1
O=C(/C=C/c1cccs1)NCCOc1ccccc1 | x | 0.55
CCOc1ccc(CCNC(=O)CN2CCN(Cc3ccccc3C)C2=O)cc1OCC | 0.21 | -0.8
COc1ccc(C(=O)CCC(=O)NCc2cc(OC)cc(OC)c2)cc1 | 0.24 | -1.1
Cc1ccc(OCCNC(=O)c2ccccc2N)cc1 | 61 | -0.7
Cc1cc(C(=O)COC(=O)c2ccc(N)cc2)c(C)n1-c1c(C)n(C)n(-c2ccccc2)c1=O | x | -2.4
O=C(O)c1cc(N2C(=O)C3C4C=CC(CO)(O4)C3C2=O)ccc1Cl (configuration not stated) | 0.05 | x
O=C(CSc1nc2ccccc2c(=O)n1-c1ccccc1)N1CCCC1 | 0.55 | 0.1
Cc1ccc(-c2ccn[nH]2)cn1 | -0.96 | -0.7
Cc1onc(-c2ccccc2)c1C(=O)NC(=S)Nc1sc2c(c1C#N)CCC2 | -0.34 | 0.1
CCc1nn2cc(-c3ccc(F)cc3)nc2s1 | 0.045 | x
Cc1ccc(Oc2ccc(OCC(=O)Nc3ccncc3)cc2)cc1 | -0.53 | -0.55
COC(=O)N/N=C/c1cccc(C(F)(F)F)c1 | x | -1.1
COc1ccc(/C=C2/SC(=O)N(CC(=O)Nc3cc(C)on3)C2=O)cc1OC | -0.085 | x
O=C(Cn1c2ccccc2c2cn[nH]c(=O)c21)NCCc1ccc(Cl)cc1 | -0.39 | 2.1
CCOC(=O)c1sc(SCc2ccccc2)c(S(=O)(=O)C(C)C)c1-n1cccc1 | -0.39 | 0.7
COc1ccccc1N(CCN1C(=O)c2cccc3cccc(c23)C1=O)C(=O)c1cc(OC)c(OC)c(OC)c1 | 0.18 | x
COc1ccc(CC(=O)Nc2ccc(S(N)(=O)=O)cc2)cc1OC | 0.085 | -1.3
CC(Sc1nc(-c2ccccc2)cc(=O)[nH]1)C(=O)NC1CCCCC1 (configuration not stated) | x | 0.05
COc1ccc(N=CC2=C(Cl)c3cc(F)ccc3OC2)cc1 | 13 | 0.65
CCOc1ccc(CCNC(=O)c2c(-n3cccc3)sc(C)c2C)cc1OCC | -0.67 | 0.15
O=c1c(Oc2ccc(Cl)cc2)c(Cl)cnn1-c1ccc(F)cc1 | -0.18 | x
CC(=O)Nc1ccc(S(=O)(=O)N2CCCC(c3nnc(SCc4ccccc4)n3C)C2)cc1 (configuration not stated) | x | 0.05
CC(Oc1ccc(/C=C2\C(=O)NC(=O)N(c3ccccc3F)C2=O)cc1)C(=O)O (configuration not stated) | -0.29 | x
N#CC1(P(=O)(c2ccccc2)c2ccccc2)CCCC1 | x | 0.15
Cc1nn2c(C)nc3sc4c(c3c2nc1=O)CC(C)(C)OC4 | 5.4 | -0.85
COc1ccc(-c2ccc(CCC(=O)O)n2Cc2ccco2)cc1 | 0.31 | -0.05
Cc1ccc(NC(=O)c2cc(S(=O)(=O)N3CCN(c4ccccc4)CC3)ccc2F)cc1C | -0.25 | x
COc1cccc2c1OC1(CCCCC1)N1N=C(c3cccs3)CC21 (configuration not stated) | 0.83 | x
CCC(=O)Nc1cccc(-c2nc3ccccc3s2)c1 | 3.8 | -0.2
Cc1nnc(SC(C(=O)N(C)C)c2ccccc2)n1C1CC1 (configuration not stated) | x | -0.15
Cc1cc2ccccn2c1C#N | x | -0.45

Screening results from PubChem.

Hits appear at their usual frequency; overall some 0.37% were active at least once.
